PD-1 reverse act = activators reversing PD-1 mediated T-cell inhibition | primary human CD4 T cells, PD-L1 beads, CellTiter-Glo 96 h | activation, % (test concentration not listed) | 29,000 tested, under 10 active | AID 2316;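 active = replicate mean of 50% or more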;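 note: 0% = median vehicle wells and 100% = positive control; 100 nL library stock added to about 50 µL; numbers are from one replicate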
YB-1 expr inh = YB-1 expression inhibition; U2OS, qRT-PCR YB-1 vs CDIP delta delta Cp, 16 h; active compounds read high; zero = DMSO, each unit about twofold; delta delta Cp (YB-1 minus CDIP) (no concentration beside the values); actives 0.37% (n = 30,000);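 active = delta delta Cp rounded down to an integer at or above 3, about 3 SD of DMSO wells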;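 note: higher means less YB-1 transcript or more CDIP transcript relative to DMSO; stock transfer was 100 nL into about 100 µL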
MITF inhib = blocks MITF activity. actives 0.28% (n = 37,000). inhibition, % (no concentration beside the values). TRPM1 promoter luciferase, luminescence, 24 h. AID 2240;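 active = most replicates at 85% or more, or half of them and the mean; inconclusive = half reach 85% but not the mean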;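 note: human melanocyte line stably carrying TRPM1 promoter luciferase reporter; 0% = vehicle wells and 100% = a positive control; the first replicate is given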
Hedgehog inh = blocks Sonic Hedgehog signaling; Shh-LIGHT2 Gli-luciferase reporter, 30 h; inhibition, % (no concentration beside the values); actives 2.1% (n = 22,000);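 active = replicate mean of 65% or more; inconclusive = mean lower but half the replicates past it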;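 note: pathway switched on by Shh-conditioned medium diluted 1 in 25 in low serum; 100 nL library stock added to about 40 µL; 0% = median of neutral wells and 100% = positive control level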
The depositor's hits bear a star; u = inconclusive; x = not tested or not shown.

SMILES	PD-1 reverse act	YB-1 expr inh	MITF inhib	Hedgehog inh
C[C@H](CO)N1C[C@H](C)[C@H](CN(C)Cc2ccc(Oc3ccccc3)cc2)Oc2c(NS(C)(=O)=O)cccc2C1=O	-2.3	0.356	-2.3	22.6
Cc1ccc(C)c(NC(=O)CN(c2ccc(Br)cc2)S(C)(=O)=O)c1	-0.1	x	6.7	x
CC(C)NC(=O)Nc1ccc2c(c1)C(=O)N([C@H](C)CO)C[C@H](C)[C@H](CN(C)Cc1ccccc1)O2	-1.3	0.0278	-9.1	x
CCOC(=O)c1ccc(COC(=O)c2ccc3ccccc3c2O)o1	0.2	x	17.3	x
C[C@H](CO)N1C[C@H](C)[C@H](CN(C)S(=O)(=O)c2ccccc2)Oc2ccc(NS(=O)(=O)c3ccccc3)cc2C1=O	x	0.138	-13.4	-7.1
CNC[C@H]1Oc2c(NC(=O)Nc3ccccc3)cccc2C(=O)N([C@H](C)CO)C[C@@H]1C	0.5	0.468	-13.1	4.3
Cc1ccc(S(=O)(=O)Nc2ccc3c(c2)C(=O)N([C@H](C)CO)C[C@H](C)[C@@H](CN(C)S(=O)(=O)c2cn(C)cn2)OCCCC[C@@H](C)O3)cc1	0.2	-0.153	-1.5	x
C[C@@H]1CC[C@]2(C(=O)OC3OC(COC4OC(CO)C(O[C@@H]5O[C@@H](C)[C@H](O)[C@@H](O)[C@H]5O)C(O)C4O)C(O)C(O)C3O)CC[C@]3(C)C(=CCC4[C@@]5(C)CC[C@@H](O)[C@](C)(C(=O)O)C5CC[C@]43C)C2[C@H]1C (stereo partly specified)	0.8	-0.485	12.3	-36.6
CC(C)NC(=O)N(C)C[C@H]1Oc2ccc(NC(=O)Nc3ccc4c(c3)OCO4)cc2CC(=O)N([C@H](C)CO)C[C@H]1C	-0.8	0.345	0.1	38.0
COc1ccc(S(=O)(=O)N(C)C[C@H]2Oc3ccc(NS(=O)(=O)c4ccc(F)cc4)cc3C(=O)N([C@@H](C)CO)C[C@H]2C)cc1	0.1	-0.371	-1.2	-2.8
Cn1c(SCC(=O)Nc2cccc(Br)c2)nnc1-c1cccs1	1.7	x	0.2	x
C[C@H](CO)N1C[C@H](C)[C@@H](CN(C)C(=O)Nc2ccccc2)Oc2c(NS(=O)(=O)c3cccs3)cccc2C1=O	0.0	0.195	0.8	-6.3
Cc1cc(C)c(S(=O)(=O)NCC(=O)Nc2ccc(C(C)C)cc2)c(C)c1	-5.7	x	5.8	x
COc1ccc(C(Nc2cccc(C)n2)c2ccc3ccc(C)nc3c2O)c(OC)c1OC (stereo unspecified)	-13.0	x	10.8	x
COc1cccc(S(=O)(=O)NCc2ccc(C(=O)Nc3ccc4sc(C)nc4c3)cc2)c1	-2.2	x	67.6	x
Cc1ccc(N2C3=C(C(=O)CC(C)(C)C3)C(c3cccs3)C3=C2CC(C)(C)CC3=O)cc1C	-7.3	0.0728	-18.3	-41.8
C[C@@H]1CN([C@H](C)CO)C(=O)c2cc(NC(=O)CCC(F)(F)F)ccc2O[C@@H]1CN(C)Cc1ccc(C(=O)O)cc1	-0.5	0.0248	-13.0	x
CC(C)NC(=O)N(C)C[C@@H]1Oc2ccc(NS(=O)(=O)c3cn(C)cn3)cc2C(=O)N([C@H](C)CO)C[C@@H]1C	-0.7	0.112	-17.5	x
COc1ccc(S(=O)(=O)Nc2ccc3c(c2)C(=O)N([C@@H](C)CO)C[C@@H](C)[C@H](CN(C)S(C)(=O)=O)O3)cc1	x	0.0143	0.4	-22.4
COc1ccc(NC(=O)Nc2ccc3c(c2)CC(=O)N([C@H](C)CO)C[C@H](C)[C@H](CN(C)C(=O)NC(C)C)O3)cc1	x	0.352	-1.0	-27.6
C[C@@H]1CCCCO[C@@H](CN(C)Cc2ccc(C(=O)O)cc2)[C@@H](C)CN([C@H](C)CO)C(=O)c2cc(NS(=O)(=O)c3ccccc3)ccc2O1	1.5	0.298	-1.3	-7.5
C[C@H](CO)N1C[C@H](C)[C@@H](CN(C)S(=O)(=O)c2ccc(F)cc2)Oc2c(NC(=O)c3cnccn3)cccc2C1=O	-0.1	-0.0571	-11.0	-8.2
N#CC1=C(N)Oc2nc(-c3ccccc3)[nH]c2C1c1ccc(OCC(N)=O)cc1 (stereo unspecified)	-0.2	0.198	-15.1	-25.7
C[C@H]1CN([C@@H](C)CO)C(=O)c2cc(NC(=O)Nc3cccc4ccccc34)ccc2O[C@H]1CN(C)S(=O)(=O)c1ccc(Cl)cc1	0.9	0.0804	7.0	-22.6
CN(CC(=O)Nc1ccc(F)cc1F)S(=O)(=O)c1ccccc1	2.9	x	-48.8	x

(further entries)
SMILES	PD-1 reverse act	YB-1 expr inh	MITF inhib	Hedgehog inh
C[C@@H]1O[C@@H](Oc2ccc3c(=O)c(-c4ccc(O)cc4)coc3c2)[C@H](O)[C@H](O)[C@H]1O	0.5	0.633	6.7	-21.6
COc1ccc(C(C)(C)C)cc1S(=O)(=O)NC1CC(C)(C)NC(C)(C)C1	5.0	x	-16.4	x
CCn1c(SCC(=O)Nc2ccc3c(c2)OCCO3)nnc1-c1ccco1	0.4	x	-7.8	x
Cc1noc(C)c1NC(=O)Nc1ccc2c(c1)CC(=O)N([C@H](C)CO)C[C@@H](C)[C@@H](CN(C)C(=O)Nc1c(C)noc1C)O2	1.3	-0.421	-7.4	-12.5
C[C@@H]1CCCCO[C@H](CN(C)C(=O)Nc2cccc3ccccc23)[C@@H](C)CN([C@H](C)CO)C(=O)c2cc(NC(=O)Nc3ccc(C(F)(F)F)cc3)ccc2O1	x	0.0682	-2.1	-7.0
O=c1c2ccccc2nc(CSc2nc(Cc3ccccc3)nc3ccccc23)n1-c1ccccc1	-6.5	x	28.8	x
C[C@H](CO)N1C[C@H](C)[C@H](CN(C)Cc2ccc(C(F)(F)F)cc2)Oc2c(NC(=O)c3ccncc3)cccc2C1=O	x	-0.018	-0.4	35.5
O=C(CSc1ccccc1C(=O)O)c1ccc(Cl)cc1	-1.7	-0.262	-17.2	-178.2
O=C(CSc1nnc(-c2ccccc2)c(-c2ccccc2)n1)Nc1cccc(C(F)(F)F)c1	-2.4	x	52.3	x
Cc1c(NC(=O)CN(c2ccccc2F)S(C)(=O)=O)cccc1[N+](=O)[O-]	-1.1	x	-8.4	x
COc1ccc(NC(=O)N(C)C[C@H]2OCCCC[C@@H](C)Oc3ccc(NS(=O)(=O)c4ccccc4)cc3C(=O)N([C@H](C)CO)C[C@@H]2C)cc1	0.5	0.301	4.7	16.6
CC(=O)Nc1ccc(NS(=O)(=O)c2ccc(Cl)c(C(=O)O)c2)cc1	3.1	x	-22.4	x
C[C@H](CO)N1C[C@H](C)[C@H](CN(C)Cc2ccc(-c3ccccc3)cc2)Oc2ccc(NC(=O)Nc3ccccc3)cc2CC1=O	0.7	0.162	16.7	6.2
O=C(O)c1cccc(-n2nnnc2SCc2ccccn2)c1	2.8	x	-18.1	x
C[C@H](CO)N1C[C@H](C)[C@@H](CN(C)Cc2ccc(-c3ccccc3)cc2)Oc2ccc(NC(=O)Cc3cn(C)c4ccccc34)cc2C1=O	-4.1	0.0447	24.3	x
CC(C)NC(=O)Nc1cccc2c1O[C@H](CN(C)Cc1ccc(C(=O)O)cc1)[C@H](C)CN([C@@H](C)CO)C2=O	0.5	0.234	-1.2	-98.5
C[C@@H]1CN([C@H](C)CO)C(=O)Cc2cc(NC(=O)C3CCCCC3)ccc2O[C@H]1CN(C)C(=O)Nc1ccc2c(c1)OCO2	1.7	0.0745	1.9	-54.7
Cc1noc(C)c1NC(=O)Nc1ccc2c(c1)C(=O)N([C@H](C)CO)C[C@H](C)[C@@H](CN(C)S(=O)(=O)c1cn(C)cn1)O2	1.2	-0.41	4.0	-10.5
COc1ccc(S(=O)(=O)Nc2cccc3c2O[C@H](CN(C)Cc2ccc(Cl)c(Cl)c2)[C@@H](C)CN([C@@H](C)CO)C3=O)cc1	-3.1	-0.085	24.5	21.7
CCOC(=O)c1ccccc1NC(=O)CC1Sc2ccc(C(F)(F)F)cc2NC1=O (stereo unspecified)	-1.7	x	1.6	x
C[C@@H]1CN([C@@H](C)CO)C(=O)c2cccc(NC(=O)NC3CCCCC3)c2O[C@H]1CN(C)Cc1ccc(C(=O)O)cc1	-0.7	-0.767	12.2	-21.6
O=C(NCn1ccc(=O)[nH]c1=S)c1ccccc1	-0.1	0.188	4.4	-19.1
C[C@@H]1CN([C@H](C)CO)C(=O)Cc2cc(NC(=O)Cc3cn(C)c4ccccc34)ccc2O[C@@H]1CN(C)Cc1ccc(C(F)(F)F)cc1	-2.1	-0.352	8.2	15.8
C[C@@H]1CN([C@@H](C)CO)C(=O)c2cc(NC(=O)CCCN(C)C)ccc2O[C@@H]1CN(C)Cc1ccccc1	1.0	0.155	-2.1	10.7
C[C@@H]1CCCCO[C@@H](CN(C)Cc2ccc(C(F)(F)F)cc2)[C@@H](C)CN([C@H](C)CO)C(=O)c2cc(NS(=O)(=O)c3ccc(F)cc3)ccc2O1	-7.7	-0.184	20.8	0.2

(further entries)
SMILES	PD-1 reverse act	YB-1 expr inh	MITF inhib	Hedgehog inh
C[C@H]1CN([C@@H](C)CO)C(=O)c2cccc(NC(=O)C3CCOCC3)c2O[C@H]1CN(C)C(=O)Nc1ccc(F)cc1	0.1	0.464	-5.6	-94.7
C[C@@H]1CN([C@@H](C)CO)C(=O)c2cc(NC(=O)Nc3ccc(C(F)(F)F)cc3)ccc2O[C@H]1CN(C)C(=O)Nc1cccc2ccccc12	x	-0.336	-8.3	-2.9
NC(=O)c1ccc(-n2c(CCC(=O)O)ccc2-c2ccccc2)cc1	0.6	x	-8.5	x
CN1C(=O)c2ccccc2NC(=O)/C1=C\c1ccccc1	0.7	0.235	-3.9	-9.3
Cc1cc(C(=O)Nc2cccc3c2O[C@H](CN(C)C)[C@H](C)CN([C@H](C)CO)C3=O)n(C)n1	0.6	-0.172	-7.3	22.0
COc1cc2ccc(=O)oc2cc1OCC=C(C)C	x	0.0729	x	14.6
CN(C(=O)c1ccccc1)C(=O)N(C)C(=O)c1ccccc1	-0.6	-0.135	7.2	-14.8
Cc1c(NC(=O)CN(c2cc(Cl)c(Cl)cc2Cl)S(C)(=O)=O)cccc1[N+](=O)[O-]	-1.8	x	19.4	x
COc1ccc(CN(C)C[C@@H]2Oc3ccc(NC(=O)Cn4cnnn4)cc3C(=O)N([C@@H](C)CO)C[C@H]2C)cc1	x	-0.043	0.5	-14.3
C[C@@H]1CN([C@H](C)CO)C(=O)Cc2cc(NC(=O)Nc3ccc4c(c3)OCO4)ccc2O[C@@H]1CN(C)Cc1ccc2c(c1)OCO2	-2.7	0.577	-1.5	71.5*
C[C@H]1CN([C@@H](C)CO)C(=O)c2cc(NC(=O)CCCCCC(=O)Nc3ccccc3N)ccc2O[C@H]1CN(C)C(=O)Nc1ccc(C(F)(F)F)cc1	0.2	-0.229	-10.9	x
Cc1ccc(S(=O)(=O)N(C)C[C@@H]2Oc3c(NS(=O)(=O)c4cn(C)cn4)cccc3C(=O)N([C@H](C)CO)C[C@H]2C)cc1	x	-0.0071	1.6	-1.6
COc1ccc(S(=O)(=O)Nc2cccc3c2O[C@@H](CN(C)Cc2ccncc2)[C@H](C)CN([C@H](C)CO)C3=O)cc1	0.6	-0.0631	-1.4	-12.9
CCCCC[C@@H](O)CC(=O)CCc1ccc(O)c(OC)c1	-2.4	0.244	-10.9	-14.1
C[C@@H]1CN([C@H](C)CO)C(=O)c2cc(NC(=O)C3CCCCC3)ccc2O[C@H]1CN(C)C(=O)Nc1ccccc1	-0.9	0.408	-5.6	x
COc1cc(OC)c(C2=NOC(C(=O)Nc3cccnc3)C2)cc1Cl (stereo unspecified)	2.1	x	-4.5	x
Cc1ccc(-n2c(SCC(=O)Nc3ccc(Br)cc3)nnc2-c2cccs2)cc1	4.3	x	5.9	x
CNC[C@@H]1Oc2ccc(NC(=O)Nc3ccc(F)cc3)cc2C(=O)N([C@@H](C)CO)C[C@H]1C	1.9	0.244	-18.0	-39.9
COC(=O)c1cccc(NC(=O)CSc2nnc(-c3cc(OC)cc(OC)c3)o2)c1	1.2	x	-8.6	x
Cc1ccc(S(=O)(=O)N(C)C[C@@H]2Oc3ccc(NC(=O)Cn4cnnn4)cc3C(=O)N([C@H](C)CO)C[C@H]2C)cc1	-0.9	0.235	-5.2	11.7
C[C@@H]1CCCCO[C@@H](CN(C)Cc2ccc(C(F)(F)F)cc2)[C@@H](C)CN([C@H](C)CO)C(=O)c2cc(NS(=O)(=O)c3cccs3)ccc2O1	-12.6	-0.302	51.4	u
CCOC(=O)c1oc2ccc(C=NC(C)(C)C)c(Cl)c2c1C	0.3	-0.0704	-57.5	-66.0

In a second layout: 3 of the compounds above.
Cc1ccc(S(=O)(=O)N(C)C[C@@H]2Oc3c(NS(=O)(=O)c4cn(C)cn4)cccc3C(=O)N([C@H](C)CO)C[C@H]2C)cc1
- PD-1 reverse act = x
- YB-1 expr inh = -0.0071
- MITF inhib = 1.6
- Hedgehog inh = -1.6

COc1ccc(S(=O)(=O)Nc2cccc3c2O[C@@H](CN(C)Cc2ccncc2)[C@H](C)CN([C@H](C)CO)C3=O)cc1
- PD-1 reverse act = 0.6
- YB-1 expr inh = -0.0631
- MITF inhib = -1.4
- Hedgehog inh = -12.9

CCCCC[C@@H](O)CC(=O)CCc1ccc(O)c(OC)c1
- PD-1 reverse act = -2.4
- YB-1 expr inh = 0.244
- MITF inhib = -10.9
- Hedgehog inh = -14.1

Assay outcomes deposited in PubChem BioAssay by Broad Institute.

Not all compounds are listed (hit frequency here may not be typical).
